Rango-impB inh – inhibitors of Rango-importin beta complex formation; Q14974; Rango CFP/YFP FRET sensor + importin beta, 45 min; Potency, µM (top dose mostly 92.2 µM), inactives show top-dose inhibition of complex formation; 0.031% of 340,000 active; AID 540263; active = rising FRET ratio curve, often small or poorly fitted; inconclusive = mostly compound fluorescence or quenching in the first reads; inactive = flat curves in all reads;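 note: potency is the fitted concentration of half-maximal effect; 0% = DMSO wells and 100% = buffer wells lacking importin beta; nearly all actives have a fitted effect of over 15% in size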
Target sequence (Q14974 whole entry, looked up): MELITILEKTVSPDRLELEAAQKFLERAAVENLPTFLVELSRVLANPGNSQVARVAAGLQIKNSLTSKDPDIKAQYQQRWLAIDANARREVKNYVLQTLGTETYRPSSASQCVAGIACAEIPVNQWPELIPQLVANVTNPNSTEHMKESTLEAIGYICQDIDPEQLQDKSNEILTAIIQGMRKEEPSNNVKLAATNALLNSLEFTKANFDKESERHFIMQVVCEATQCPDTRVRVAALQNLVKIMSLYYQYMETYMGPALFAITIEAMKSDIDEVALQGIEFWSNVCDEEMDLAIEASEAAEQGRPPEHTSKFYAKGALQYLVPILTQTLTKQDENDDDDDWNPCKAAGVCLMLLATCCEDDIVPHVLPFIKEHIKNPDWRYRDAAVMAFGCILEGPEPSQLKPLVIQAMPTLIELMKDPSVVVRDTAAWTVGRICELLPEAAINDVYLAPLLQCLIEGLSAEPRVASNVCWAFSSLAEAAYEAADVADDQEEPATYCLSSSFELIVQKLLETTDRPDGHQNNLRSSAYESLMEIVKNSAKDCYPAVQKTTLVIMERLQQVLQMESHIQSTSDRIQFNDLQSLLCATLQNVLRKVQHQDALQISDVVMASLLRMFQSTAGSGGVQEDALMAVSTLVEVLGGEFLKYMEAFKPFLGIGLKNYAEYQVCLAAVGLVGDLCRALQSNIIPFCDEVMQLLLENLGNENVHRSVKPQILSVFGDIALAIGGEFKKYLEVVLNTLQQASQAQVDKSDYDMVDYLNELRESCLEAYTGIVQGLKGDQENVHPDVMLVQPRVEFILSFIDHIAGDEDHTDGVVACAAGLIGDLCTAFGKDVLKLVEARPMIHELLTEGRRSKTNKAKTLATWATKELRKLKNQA
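Inhibition scored from the CFP 486 nm/YFP 530 nm FRET ratio 45 min after adding 0.125 microM importin beta to 50 nM Rango biosensor preincubated 5 min with compound (room temperature, PBS with DTT, Tween-20, BSA). No-importin wells as positive control.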
Rango release inh – inhibitors of RanGTP-induced Rango-importin beta complex dissociation; AID 540253; Potency, µM (highest dose often 46.1 µM), inactives show at the top dose activity change, negative = inhibition; Biochemical FRET Rango-importin beta, RanGTP-induced dissociation; 0.071% of 340,000 active; active means falling FRET ratio curve, often poorly fitted, with flat reads before Ran was added; inconclusive means other falling curves, or compound fluorescence or quenching; inactive means flat or rising ratio curve;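 note: potency is the fitted concentration of half-maximal effect; % of control where 0% means no effect; nearly all actives have a fitted effect of over 45% in size; -100% = wells without RanGTP and RCC1; the record marks most hits as doubtful in a second field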
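FRET read at 45 min, room temperature: inhibitors block the CFP/YFP signal rise when RanGTP (0.6 uM Ran, 2 mM GTP, 0.2 uM RCC1) frees Rango (0.1 uM) from importin beta (0.25 uM). Pre-read after 5 min compound exposure flags interference.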
GLA inh pH 4.5 – blocks human alpha-galactosidase A at pH 4.5 | P06280 | purified enzyme, 4-MU-alpha-Gal fluorescence, pH 4.5 | activity change, negative = inhibition, % at 105 µM | 230,000 tested, under 10 active | AID 1467; inconclusive = small, poorly fitted or top-dose-only inhibition, or a rising curve; inactive = flat fitted curve, though single readings scatter; no compound was filed as active;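 note: 0% = full activity with enzyme and -100% = basal without enzyme; dose as in the result columns while the protocol names 77 µM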
miR-21 reporter – raises the signal of a miR-21 reporter; HeLa miR-21 FLuc reporter, luciferase, 48 h; Potency, µM (series often up to 38.3 µM), inactives show top-dose reporter change, positive = more light; 340,000 tested, under 10 active; AID 2288; active = well fitted rising curve with a large enough effect; inconclusive = small, poorly fitted or top-dose-only effect; inactive = no such curve, though single readings can be large or run the other way;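 note: % of control where 0% means no effect; miR-21 action dims this reporter so a rising signal means less miR-21 action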
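Using DMEM plus 10% FBS, HeLa miR-21-FLuc cells are incubated with test compounds (final up to about 40uM) for 48 hours; firefly luciferase signal is then imaged following reagent-mediated lysis.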
Starred values were filed as active, the others as inactive; u = inconclusive; x = no result given; & = joins results of further samples. This is a subset; count on the stated rates, not on these rows.

SMILES	Rango-impB inh	Rango release inh	GLA inh pH 4.5	miR-21 reporter
COc1ccc(OC)c(N2C(=O)NC(=O)/C(=C/c3ccc([N+](=O)[O-])s3)C2=O)c1	u	-8.8%	-8.3	5.9%
O=c1[nH]c(O)c(C=Nc2ccc(Cl)c(C(F)(F)F)c2)c(=O)[nH]1	-2.1%	10.8%	x	-5.1%
COC(=O)C1=C(c2cccc(C#N)c2)C[C@@H]2CC[C@H]1N2C(=O)N1CCCCC1	-0.2%	-10.0%	x	x
CC[C@H](C)[C@@H](C(=O)N1CCCC1c1nccs1)N(C)C(=O)[C@H](CC(C)C)N(C)C(=O)[C@H](Cc1ccc(OC)cc1)N(C)C(=O)/C=C(\C)OC (stereo partly drawn)	-0.9%	0.0%	x	x
O=C(Nc1cccc(Cl)c1)OCC#CCN1CCCC1	7.2%	-17.4%	x	x
Cc1ccc(C)c(NP(=O)(Oc2ccccc2)Oc2ccccc2)c1	3.9%	-14.7%	x	28.0%
O=C(O)Cn1cc(/C=C2\C(=O)NC(=O)N(c3ccc(Br)cc3)C2=O)c2ccccc21	u	-12.9%	x	1.2%
COC(=O)C1=C(c2ccc(Cl)c(C(F)(F)F)c2)C[C@@H]2CC[C@H]1N2C(=O)NCCOc1ccccc1	4.5%	10.9%	x	x
C1CC2OC2CC1C1CO1 (stereo not drawn)	-4.3%	11.0%	x	x
CC(=O)O[C@@]12CO[C@@H]1C[C@@H](O)[C@@]1(C)C(=O)[C@H](O)C3=C(C)[C@@H](OC(=O)[C@H](O)[C@@H](NC(=O)c4ccccc4)c4ccccc4)C[C@@](O)([C@@H](OC(=O)c4ccccc4)C12)C3(C)C (stereo partly drawn)	0.7%	-21.3%	x	12.1%

Grouped by structure: those above with a CF3 group (two)
SMILES	Rango-impB inh	Rango release inh	GLA inh pH 4.5	miR-21 reporter
O=c1[nH]c(O)c(C=Nc2ccc(Cl)c(C(F)(F)F)c2)c(=O)[nH]1	-2.1%	10.8%	x	-5.1%
COC(=O)C1=C(c2ccc(Cl)c(C(F)(F)F)c2)C[C@@H]2CC[C@H]1N2C(=O)NCCOc1ccccc1	4.5%	10.9%	x	x

Back to the main list; the 7 compounds before the break are reprinted first.
SMILES	Rango-impB inh	Rango release inh	GLA inh pH 4.5	miR-21 reporter
CC[C@H](C)[C@@H](C(=O)N1CCCC1c1nccs1)N(C)C(=O)[C@H](CC(C)C)N(C)C(=O)[C@H](Cc1ccc(OC)cc1)N(C)C(=O)/C=C(\C)OC (stereo partly drawn)	-0.9%	0.0%	x	x
O=C(Nc1cccc(Cl)c1)OCC#CCN1CCCC1	7.2%	-17.4%	x	x
Cc1ccc(C)c(NP(=O)(Oc2ccccc2)Oc2ccccc2)c1	3.9%	-14.7%	x	28.0%
O=C(O)Cn1cc(/C=C2\C(=O)NC(=O)N(c3ccc(Br)cc3)C2=O)c2ccccc21	u	-12.9%	x	1.2%
COC(=O)C1=C(c2ccc(Cl)c(C(F)(F)F)c2)C[C@@H]2CC[C@H]1N2C(=O)NCCOc1ccccc1	4.5%	10.9%	x	x
C1CC2OC2CC1C1CO1 (stereo not drawn)	-4.3%	11.0%	x	x
CC(=O)O[C@@]12CO[C@@H]1C[C@@H](O)[C@@]1(C)C(=O)[C@H](O)C3=C(C)[C@@H](OC(=O)[C@H](O)[C@@H](NC(=O)c4ccccc4)c4ccccc4)C[C@@](O)([C@@H](OC(=O)c4ccccc4)C12)C3(C)C (stereo partly drawn)	0.7%	-21.3%	x	12.1%
COc1ccc(N2CCN(CCCN)CC2)cc1	-0.3%	20.6%	x	x
CC(C)c1ccc(-n2c(O)c(/C=N/NC(=O)c3ccncc3)c(=O)[nH]c2=O)cc1	u	u	-4.1	8.3%
O=C(O)CNC1c2ccccc2CSc2ccccc21 (stereo not drawn)	-0.1%	7.0%	x	x
O=c1c2ccc(Cl)cc2[nH]c(=S)n1-c1cccnc1	1.5%	-6.2%	4.4	-2.2%
Cc1cc(OCc2cc(C(=O)O)oc2C)c2c3c(c(=O)oc2c1)CCCC3	4.6%	2.6%	x	-0.5%
O=C1CC(N2CCC(n3c(=O)[nH]c4ccccc43)CC2)C(=O)N1c1ccc(F)cc1 (stereo not drawn)	11.0%	7.4%	2.6	-3.1%
C=CCn1c(O)c(C(=O)CCCCCC)c(=O)[nH]c1=O	0.7%	0.3%	-3.9	u
O=C1C(=O)c2ccccc2-c2ccccc21	5.5%	-14.5%	x	u
O=C(COc1ccccc1)N1CCN(CC2CC3C=CC2C3)CC1 (stereo not drawn)	-0.5%	-9.1%	-27.8	-9.6%
COc1ccc(-c2nn(Cc3ccccc3)cc2C(=O)NC2CC2)cc1OC	-0.3%	-6.9%	x	x

Compounds above that contain an NH in an aromatic ring:
SMILES	Rango-impB inh	Rango release inh	GLA inh pH 4.5	miR-21 reporter
O=c1[nH]c(O)c(C=Nc2ccc(Cl)c(C(F)(F)F)c2)c(=O)[nH]1	-2.1%	10.8%	x	-5.1%
CC(C)c1ccc(-n2c(O)c(/C=N/NC(=O)c3ccncc3)c(=O)[nH]c2=O)cc1	u	u	-4.1	8.3%
O=c1c2ccc(Cl)cc2[nH]c(=S)n1-c1cccnc1	1.5%	-6.2%	4.4	-2.2%
O=C1CC(N2CCC(n3c(=O)[nH]c4ccccc43)CC2)C(=O)N1c1ccc(F)cc1 (stereo not drawn)	11.0%	7.4%	2.6	-3.1%
C=CCn1c(O)c(C(=O)CCCCCC)c(=O)[nH]c1=O	0.7%	0.3%	-3.9	u

(further entries)
SMILES	Rango-impB inh	Rango release inh	GLA inh pH 4.5	miR-21 reporter
Cc1ccsc1C(=O)C1CCCN(Cc2cn(C)nc2C)C1 (stereo not drawn)	u	2.1%	1.2	0.5%
CCOP(=O)(OCC)c1nc(-c2cccc3ccccc23)oc1NCc1ccccc1	6.5%	12.9%	u	-3.6%
Oc1ccc(C[C@H]2NCCc3cc(O)c(O)cc32)cc1O	-0.5%	0.3%	x	-1.0%
C[C@@H]1C(=O)O[C@H]2[C@H](O)[C@]34[C@@H]5OC(=O)[C@]3(OC3OC(=O)[C@H](O)C34[C@H](C(C)(C)C)[C@@H]5O)[C@@]12O (stereo partly drawn)	-1.7%	-3.0%	x	x
COc1ccc(C(=O)CC2C(=O)N(C)C(=O)N(C)C2=O)cc1	-0.2%	-4.7%	-3.2	-5.4%
Cc1nn(Cc2ccccc2Cl)c(C)c1C(=O)OCC(=O)NC1CCCC(C)C1C (stereo not drawn)	5.1%	14.4%	-2.2	-0.6%
O=C(Cn1c(=O)n(CC2CS2)c2ccccc21)N1CCCCCC1 (stereo not drawn)	-2.7%	13.5%	2.3	-0.8%
O=C(N/N=C/c1c(O)n(CCC2=CCCCC2)c(=S)[nH]c1=O)c1ccccc1	u	u	6.8	-57.0%
CN1C(=O)CN=C(c2ccc(Cl)cc2)c2cc(Cl)ccc21	u	-10.8%	-0.6	-11.0%
CCN1CCc2ccccc2C1	1.8%	-4.4%	3.9	-1.2%
COc1cc2c(cc1O)[C@@H]1Cc3ccc(OC)c(O)c3CN1CC2	-4.1%	9.4%	x	x
COC(=O)C1=C(c2cc3ccccc3o2)C[C@@H]2CC[C@H]1N2C(=O)NC1CCCCC1	-3.8%	22.1%	x	x
CCN(CC)C(=O)c1ccc(N(Cc2ccccc2)S(C)(=O)=O)cc1	u	-1.9%	x	-0.6%
CCC1(c2ccc(N)cc2)CCC(=O)NC1=O (stereo not drawn)	4.2%	4.4%	-4.5&2.7	x
OC1(c2ccccc2)CCNC2CCCCC21 (stereo not drawn)	0.1%	4.2%	x	0.3%
Cc1ccc(CC2C(=O)N(C)C(=O)N(C)C2=O)s1	-2.9%	-12.7%	-2.7	-7.3%
CCOP(=O)(OCC)c1ccc(OP(=O)(c2cccc([N+](=O)[O-])c2)c2cccc([N+](=O)[O-])c2)cc1	0.4%	-2.8%	-1.7	-3.0%
Cc1nc2ccccc2c(=O)n1-c1cc(F)ccc1F	-0.2%	-3.1%	0.0	1.2%
COC(=O)C1=C(c2cccc(OC)c2OC)C[C@@H]2CC[C@H]1N2C(=O)NCCO	-3.1%	-12.3%	x	x
C=CCN1C(=O)NC(=O)/C(=C\c2ccc(-c3ccccc3[N+](=O)[O-])o2)C1=O	0.2%	-7.6%	-12.8	23.2%

Assay outcomes from PubChem BioAssay.
